High-throughput results: PubChem, Fisher Drug Discovery Resource Center
NPYLR7 ag – mosquito NPYLR7 agonism; HEK293T NPYLR7/Galpha15, GCaMP6s calcium fluorescence; activation, % at 10 µM; 270,000 compounds, 0.15% hits; AID 1259423; in the data active = activation above about 40%;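 also: 0% = vehicle and 100% = reference agonist at the receptor; some compounds past the cut are filed as inactive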
NPYLR7 ag max-min – second read-out of NPYLR7 ag, no call of its own (marks repeat the call); activation, %; measured here: Max-Min RFU normalised activation; some inactives read as strong as hits;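 span of the calcium signal over five minutes; 0% = vehicle and 100% = native peptide agonist; compound fluorescence can raise it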
* marks the source's active call; other numbers are inactive results.

SMILES | NPYLR7 ag | NPYLR7 ag max-min
COC(=O)C1CCCCN1 (stereo not drawn) | 8 | 13
CC(C)n1cc(CN(Cc2cccnc2)Cc2ccc3c(c2)OCO3)cn1 | 0 | 1
O=C(N(Cc1ccc(OS(=O)(=O)c2ccc(F)cc2)cc1)Cc1ccco1)C12CC3CC(CC(C3)C1)C2 | -2 | 0
O=C(Nc1ccc(N2CCNC2=O)cc1)c1ccccc1O | 6 | 4
C=CCn1c(=O)c2c(nc3n(-c4cc(Cl)ccc4OC)c(C)cn23)n(C)c1=O | -1 | 0
O=[N+]([O-])c1ccc2c(c1)N(S(=O)(=O)c1cc(C(F)(F)F)ccc1Cl)CC2 | 9 | 4
Cc1ccccc1-n1c(SCc2ccc(C(=O)N3CCN(c4ccccc4F)CC3)cc2)nnc1-c1ccncc1 | 5 | 12
CCc1c(C(=O)N2CCc3[nH]cnc3C2c2cccnc2)[nH]c2ccccc12 (stereo not drawn) | 32 | 16
Cc1nccn1-c1ccccc1CNC(=O)c1cn[nH]n1 | 0 | -1
CC(C)CCNC(=O)CCc1csc(NC(=O)c2ccc[nH]c2=O)n1 | -5 | -9

Compounds above with nitrogen in an aromatic ring (6):
SMILES | NPYLR7 ag | NPYLR7 ag max-min
CC(C)n1cc(CN(Cc2cccnc2)Cc2ccc3c(c2)OCO3)cn1 | 0 | 1
C=CCn1c(=O)c2c(nc3n(-c4cc(Cl)ccc4OC)c(C)cn23)n(C)c1=O | -1 | 0
Cc1ccccc1-n1c(SCc2ccc(C(=O)N3CCN(c4ccccc4F)CC3)cc2)nnc1-c1ccncc1 | 5 | 12
CCc1c(C(=O)N2CCc3[nH]cnc3C2c2cccnc2)[nH]c2ccccc12 (stereo not drawn) | 32 | 16
Cc1nccn1-c1ccccc1CNC(=O)c1cn[nH]n1 | 0 | -1
CC(C)CCNC(=O)CCc1csc(NC(=O)c2ccc[nH]c2=O)n1 | -5 | -9

New compounds follow
SMILES | NPYLR7 ag | NPYLR7 ag max-min
Cn1c(C(F)(F)F)nc2ccccc21 | 4 | 12
c1ccc2c(c1)nc1n2CN(CCN2CCOCC2)CN1 | 1 | 1
CC(C)N1CCN(C(=O)CCN2CC(C(=O)O)CC2=O)CC1 (stereo not drawn) | 24 | 6
CCOc1ccc(NC(=O)c2c(C)noc2C(C)C)cc1 | -1 | -1
CC(=O)Nc1ccc(NC(=O)C(C2CCCC2)N2CCN(C(=O)c3cccc(F)c3)CC2)cc1 (stereo not drawn) | -6 | -9
O=C(O)[C@H](O)[C@@H](O)[C@H](O[C@@H]1O[C@H](CO)[C@H](O)[C@H](O)[C@H]1O)[C@H](O)CO | -4 | -12
CC(Cn1ccnc1)NCC1(N2CCCCC2)CCCCC1 (stereo not drawn) | -1 | -2
O=C(Nc1ccc(Oc2ccc(Cl)c3cccnc23)c(Cl)c1)c1cc(Cl)cc(Br)c1O | 5 | 7
O=C(CSc1nnc(NC2CC2)s1)NCC(F)(F)F | -2 | 0
Cc1ccc(NC(=O)CCn2nc(C)nc2C)c(C)c1 | 0 | 9
COc1ccc(OC)c(Nc2nnc(-c3cc4c(ccc5ccccc54)oc3=O)s2)c1 | 1 | 3
CCOCCCn1c(SCc2ccccc2SC(F)(F)F)nc2cc(C(=O)OCC)ccc21 | 0 | -7
COCCN(Cc1cc(NC(=O)Nc2ccc(C(F)(F)F)cc2)ccc1N(C)C)C(=O)CC(C)(C)C | 1 | 8
Cc1cccc(C(C(=O)NCc2nnc3n2CCC3)N(C)C)c1 (stereo not drawn) | 6 | -9
CC(C)c1ccc(C2=CSC3=NS(=O)(=O)CCN23)c(C(C)C)c1 | 13 | 9
CC1=C(C(=O)NC(C)c2cnc(N3CCCCCCC3)nc2C)OCCO1 (stereo not drawn) | 9 | 4
COCCCN(Cc1c(-c2ccc(F)cc2)noc1N1CCN(C)CC1)C(=O)C1CC1 | 8 | 8
Cc1ccc(-n2ncc3c(=O)n(NC(=O)c4ccc(C(F)(F)F)cc4)cnc32)cc1 | 3 | -1
CCCn1ncc(CN2CCC(n3nccc3NC(=O)CCc3ccccc3)CC2)c1C | 2 | -2
O=C(NCCn1nc(-c2ccccc2)ccc1=O)C1CCC(=O)N(C2CC2)C1 (stereo not drawn) | 5 | 0
CNCCNS(=O)(=O)c1cccc2cnccc12 | 4 | -29
CN1C2CCCC1CC(NC(=O)C1(c3ccccc3)CCOCC1)C2 (stereo not drawn) | -15 | -20
COc1cc(OC)c(NS(=O)(=O)c2ccc(F)cc2[N+](=O)[O-])cc1Cl | 0 | 5
CCOC(=O)C1CCN(Cc2cc(=O)oc3cc(-c4ccccc4)c(O)cc23)CC1 | -3 | -5
O=C(NCc1csc(N2CCOCC2)n1)c1cnn2c1CCCC2 | -2 | -3
O=C1CC(c2cnn3cccnc23)c2cnn(Cc3cccnc3)c2N1 (stereo not drawn) | 2 | -2
O=C(c1cc([N+](=O)[O-])cc([N+](=O)[O-])c1)N1CCC2(CC1)SCCN2C(=O)c1cccc(Cl)c1 | 21 | 29
CCc1ccc(-c2cc(C(=O)NC(C)C)c3ccccc3n2)cc1 | -1 | -6
Cc1ccccc1C(=O)Nc1ccc(-c2nc3cc(C(C)(C)C)ccc3o2)cc1 | 6 | -3
NC(=O)c1ccc(C(=O)N=c2sccn2Cc2ccccc2)cc1 | -23 | -25

Rewritten with tabs: part of the list above.
smiles	NPYLR7 ag	NPYLR7 ag max-min
CCOC(=O)C1CCN(Cc2cc(=O)oc3cc(-c4ccccc4)c(O)cc23)CC1	-3	-5
O=C(NCc1csc(N2CCOCC2)n1)c1cnn2c1CCCC2	-2	-3

More results follow:
SMILES | NPYLR7 ag | NPYLR7 ag max-min
Cc1ccc(CN(C)C(=O)c2cn(C3CCCCC3)nn2)o1 | 7 | 9
COCCCN(Cc1c(C)nn(-c2ccccc2)c1N1CCN(C)CC1)C(=O)C1C[C@H]1c1ccccc1 (stereo partly drawn) | 4 | 12
COc1ccc(C2=N/C(=C/c3ccc(OC)c(OC)c3OC)C(=O)O2)cc1Br | -1 | -9
Cc1cc(NC(=O)C2=COCCO2)n(-c2nc3c(F)cccc3s2)n1 | -6 | -12
CCSc1ncc(C2CC(=O)Nc3c2c(C)nn3Cc2ccccc2)cn1 (stereo not drawn) | -4 | -13
CCCCN(CC(=O)Nc1cc(C(C)(C)C)nn1-c1ccc(C)cc1)C(=O)COCc1ccccc1 | -3 | 0
CCCNC(=O)NC(=O)CNc1cccc(F)c1 | 5 | 3
CCc1cc2c(=O)[nH]c(-c3ccc(S(=O)(=O)N(C)C)cc3)nc2s1 | -2 | -3
CC(C)(C)NC(=O)CS(=O)Cc1cc(-c2ccccc2)no1 (stereo not drawn) | -6 | -6
Cc1ccc2oc(C(=O)NCc3cc(-c4cccnc4)no3)cc2c1 | 6 | 0
CNC1CCN(c2cccnn2)CC1 | 5 | 3
COc1ccc(/C=N\N(C)c2cc(C)nc(-c3ccccc3O)n2)cc1OC | -8 | -17
CCOC(=O)c1nn(-c2ccc(C)cc2)c(=O)c2c(NC(=O)c3ccc(C)c(C)c3)scc12 | 2 | 0
CCOC(=O)c1csc(NC(=O)c2ccccc2Br)n1 | 1 | -5
CCNC(=S)NS(=O)(=O)c1ccccc1 | 0 | 0
COc1cc2c(cc1OC)C(c1cccc(Cl)c1)N(C(=O)c1c(-c3ccccc3)noc1C)CC2 (stereo not drawn) | 9 | 4
CSc1nc2c(c(-c3ccc(C)o3)c1C#N)CCCC2 | -2 | -4
COCCCN(CC(=O)N(CCc1c[nH]c2ccccc12)Cc1ccc(C(F)(F)F)cc1)C(=O)/C=C/c1ccccc1 | 14 | 22
COc1ccccc1C(=O)N(Cc1cccc(OS(=O)(=O)c2cccc(C(F)(F)F)c2)c1)C(C)C | 21 | 15
Cc1cccc(C(=O)NC(C(=O)N2CCCC2)C2CCN(C(=O)c3cccc(Br)c3)CC2)c1 (stereo not drawn) | -3 | 5

Of the compounds above, 3 have a nitro group on carbon.
SMILES | NPYLR7 ag | NPYLR7 ag max-min
O=[N+]([O-])c1ccc2c(c1)N(S(=O)(=O)c1cc(C(F)(F)F)ccc1Cl)CC2 | 9 | 4
COc1cc(OC)c(NS(=O)(=O)c2ccc(F)cc2[N+](=O)[O-])cc1Cl | 0 | 5
O=C(c1cc([N+](=O)[O-])cc([N+](=O)[O-])c1)N1CCC2(CC1)SCCN2C(=O)c1cccc(Cl)c1 | 21 | 29

Later entries
SMILES | NPYLR7 ag | NPYLR7 ag max-min
Cc1ccc2oc(-c3cccc(NC(=O)c4ccc(C)c([N+](=O)[O-])c4)c3)nc2c1 | -14 | -17
COc1cc(C=C2N=C(c3ccc(Br)cc3)OC2=O)ccc1OC(F)F | 0 | 0
O=C(c1ccccc1C(F)(F)F)N1CCN(CC(O)COCc2cccs2)CC1 (stereo not drawn) | 5 | 2
O=C(O)C1=CC2C(C=C1)N=C1CCCN12 (stereo not drawn) | 1 | 5
CCNC(=O)OC1CN(C(=O)c2ncoc2-c2ccccc2)CCC(=O)N(C)c2ccccc21 (stereo not drawn) | 6 | 15
CC(=O)c1c[nH]c(C(=O)OCC(=O)Nc2ccccc2)c1 | 12 | 4
COc1ccc(C)cc1S(=O)(=O)NCCn1nc(-c2ccccc2)ccc1=O | 0 | 0
COc1cc2c(C#N)c(N(CCO)CCO)nc(N)c2c(N)n1 | -4 | -5
CCC(C)N(Cc1csc(COc2cccc(Cl)c2)n1)S(=O)(=O)c1ccc(C)cc1 (stereo not drawn) | -5 | -4
Cc1cc(C)nc(Cn2nc(C3CCNCC3)n(Cc3ccccc3)c2=O)n1 | -6 | -6
O=c1cc(CSc2nc3ccccc3c(=O)[nH]2)c2c(ccc3ccccc32)o1 | 6 | 6
Cc1ccc(-n2ccnc2SCC(=O)N2CCCC(C(N)=O)C2)c(C)c1 (stereo not drawn) | 2 | 1
Cc1cc(Br)cc2c(N=NC(=O)c3cccnc3)c(O)n(C)c12 | -14 | -23
O=c1[nH]cnc2c1cnn2-c1ccc(F)cc1 | 2 | 11
CN(Cc1cccc2ncccc12)CC(C)(C)CN1CCOCC1 | 12 | 10
COc1ccc(Cl)cc1CN1C(=O)NC(C)(Cc2ccc3c(c2)OCO3)C1=O (stereo not drawn) | 3 | 2
O=C(c1cccc(O)c1)N1CCN(Cc2cn3ccsc3n2)CC1 | -2 | -17
Cc1cccnc1CN1CCN(Cc2c(C)nn(CCO)c2C)CC1 | -5 | -3
O=C(Cn1cc(C(F)(F)F)cc(Cl)c1=O)N1CCCC1c1cccs1 (stereo not drawn) | 4 | 10
CCN1CCN(c2cc(Cl)nc(SCc3ccc(C(=O)NCc4ccc(F)cc4)cc3)n2)CC1 | 1 | 16
COc1ccc(CCN2C(=O)CC(N3CCC(C(N)=O)CC3)C2=O)cc1OC (stereo not drawn) | 5 | 3
O=C(CN(CC1CCCO1)C(=O)Nc1cc(C(F)(F)F)cc(C(F)(F)F)c1)N(Cc1ccc(F)cc1)Cc1ccco1 (stereo not drawn) | -4 | -3
CCCn1c(=O)c2c(nc3n2CC(C)=NN3Cc2ccc(Cl)cc2)n(C)c1=O | -9 | -11
CCc1nc(C)c(C(=O)N2CCC(O)(c3cccnc3)CC2)s1 | 7 | 3
CC(Cn1cncn1)NC(=O)c1cn(C)nc1-c1ccccc1Cl (stereo not drawn) | 4 | 1
CCOC(=O)C1(Cc2ccccc2)CCCN(CCCn2cccn2)C1 (stereo not drawn) | 7 | 13
COc1ccc(CCOC(=O)C2CCCCN2C(=O)CCCOc2ccccc2)cc1OC (stereo not drawn) | -5 | -9
O=C(O)c1cnc(/C=C/c2cc(Cl)c3c(c2)OCCCO3)s1 | 9 | 11
O=C(CSc1nc2c(-c3ccccc3)c[nH]c2c(=O)n1C1CC1)N1CCCCC1 | -2 | -7
COc1cccc(CC2(CO)CCCN(Cc3cc4ccccc4s3)C2)c1 (stereo not drawn) | 9 | 0

Six records picked at random from the list so far, as already listed:
SMILES | NPYLR7 ag | NPYLR7 ag max-min
CCc1nc(C)c(C(=O)N2CCC(O)(c3cccnc3)CC2)s1 | 7 | 3
CC(Cn1cncn1)NC(=O)c1cn(C)nc1-c1ccccc1Cl (stereo not drawn) | 4 | 1
O=C(CN(CC1CCCO1)C(=O)Nc1cc(C(F)(F)F)cc(C(F)(F)F)c1)N(Cc1ccc(F)cc1)Cc1ccco1 (stereo not drawn) | -4 | -3
CCOC(=O)C1(Cc2ccccc2)CCCN(CCCn2cccn2)C1 (stereo not drawn) | 7 | 13
O=C(O)c1cnc(/C=C/c2cc(Cl)c3c(c2)OCCCO3)s1 | 9 | 11
COc1ccc(CCOC(=O)C2CCCCN2C(=O)CCCOc2ccccc2)cc1OC (stereo not drawn) | -5 | -9

(listing goes on)
SMILES | NPYLR7 ag | NPYLR7 ag max-min
CC(C)(C)OC(=O)N1CCCc2cccc(OCC(=O)NC3CCCC3)c21 | 1 | 0
O=C(Cc1ccccc1)Nc1c(-c2ccc(C(F)(F)F)cc2)nc2ccccn12 | -2 | 2
COc1cc(/C=C2\NC(=S)NC2=O)cc(OC)c1OC | 6 | 10
COc1cccc(OC)c1C(=O)N1CCC2(CC1)OCC(C(=O)NC1CC1)N2C(=O)c1ccc(F)cc1 (stereo not drawn) | -1 | 5
O=c1c2c(nc(NCCO)n1-c1ccccc1)-c1ccccc1CC21CCCCC1 | 3 | 2
Cc1ccc(Cn2ccccc2=NC(=O)c2ccc3c(c2)OCO3)cc1 | 8 | 7
Cc1csc(SCc2cc(=O)c(OC(=O)c3ccccc3Cl)co2)n1 | -2 | -6
CCN(CC)C1=C(c2c(C)[nH]n(-c3ccc(F)cc3)c2=O)C(=O)N(Cc2ccc(F)cc2)C1=O | 5 | 11
c1ccc2c3c([nH]c2c1)CCN(c1cc(N2CCOCC2)ncn1)C3 | -5 | -8
COc1cc(CC(=O)NC(C)c2ccc(S(C)(=O)=O)cc2)ccc1C (stereo not drawn) | 23 | 13
COc1ccc(S(=O)(=O)N2CCN(c3nc(C)nc(C)c3Cc3ccccc3F)CC2)cc1 | 18 | 31
C/C=C(\C)C(=O)N1CCN(c2nc3nccc(-c4cccc(C)c4)n3n2)CC1 | 8 | 9
N#Cc1cnc2c(F)cc(F)cc2c1N1CCCN(C(N)=O)CC1 | 9 | 6
CC(NC(=O)Nc1ccccc1S(C)(=O)=O)C(=O)NC(C)(C)C (stereo not drawn) | 11 | 6

Not all compounds are listed; rates above refer to the full screens.
